TRPML1 agonist = qHTS for Agonists of the Human Mucolipin Transient Receptor Potential 1 (TRPML1). TRPML1-expressing cells, Ca2+ dye fluorescence, FDSS; host cell line not named in the record; reference of the full effect not given here. Mucolipin-1 (Homo sapiens), Q9GZU1. AID 624414, 2012. activation, % (concentration not given with the values). hit rate 0.12% among 410,000; in the data active = activation above about 50%; inconclusive = about 30% to 50%; inactive = below about 30%; also: 0% is about no effect; the text of the record puts the active cut at 80%
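In this qHTS format, compounds were pin-transferred onto Ca8-dye-loaded TRPML1-DL cells induced with Tet overnight, and intracellular Ca2+ fluorescence was recorded kinetically for 110 s after a 10 s baseline. A subsequent 4uM final 54-4 (EC80) addition followed by a second 110 s read served as the antagonist phase.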
TRPML1 blocker = qHTS for Inhibitors of the Human Mucolipin Transient Receptor Potential 1 (TRPML1); Mucolipin-1 (Homo sapiens), Q9GZU1; TRPML1-inducible cells, Ca2+ dye fluorescence, FDSS; hits give low values; inhibition of EC80 agonist-evoked calcium signal; activity change, negative = inhibition, % (no concentration beside the values); hit rate 0.02% among 390,000; in the data active means activity change below about -50%; inconclusive means about -30% to -50%; inactive means above about -30%;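 also: stimulus is agonist 54-4 at its EC80 concentration; % is scaled to controls: 0 for no effect and ±100 for the full control effect; compound concentration not given in the record; the text of the record puts the active cut at -80%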
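Tet-induced TRPML1-DL cells loaded with Ca8 no-wash calcium dye were read kinetically on FDSS. Compound addition was followed by EC80 agonist 54-4 (4 uM final); inhibition was read over 110 s.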
PINK1 modulator = A Quantitative High throughput Screen to Identify Chemical Modulators of PINK1 Expression. Potency, µM (titrated, usually from 76.6 µM), for inactives: at the highest dose activation (PINK1 increase), usual class: activators. hit rate 0.2% among 410,000. AID 624263, 2012. PINK1 immunofluorescence, high-content cytometry, 24 h; active = well fitted activation curve with a large enough effect; inconclusive = small, poorly fitted or top-dose-only effect; inactive = flat fitted curve, though single readings scatter; cell line not stated here;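 also: potency is read from the fitted curve at half-maximal effect; % of control where 0% means no effect; nearly all actives have a fitted effect of over 65% in size; a mitochondrial uncoupler was the plate control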
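Measures PINK1 amount and localization on or inside mitochondria by immunofluorescence. Stable cells get compounds at 5 concentrations for 24 hours before fixation and staining; CCCP controls included.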
Six1-Eya2 inh = qHTS Assay for Inhibitors of the Six1/Eya2 Interaction; activity change, % (test concentration not listed); Homeobox protein SIX1 (Homo sapiens) + Protein phosphatase EYA2 (Homo sapiens), …; hit rate 0.56% among 360,000; AlphaScreen GST-Six1/His-Eya2 binding, biochemical; hits give low values; control for the full effect not named in the record; in the data active = activity change below about -65%; inconclusive = about -30% to -65%; inactive = above about -30%; also: % is scaled to controls: 0 for no effect and ±100 for the full control effect; compound concentration not given in the record
Target sequence (O00167 whole entry, looked up): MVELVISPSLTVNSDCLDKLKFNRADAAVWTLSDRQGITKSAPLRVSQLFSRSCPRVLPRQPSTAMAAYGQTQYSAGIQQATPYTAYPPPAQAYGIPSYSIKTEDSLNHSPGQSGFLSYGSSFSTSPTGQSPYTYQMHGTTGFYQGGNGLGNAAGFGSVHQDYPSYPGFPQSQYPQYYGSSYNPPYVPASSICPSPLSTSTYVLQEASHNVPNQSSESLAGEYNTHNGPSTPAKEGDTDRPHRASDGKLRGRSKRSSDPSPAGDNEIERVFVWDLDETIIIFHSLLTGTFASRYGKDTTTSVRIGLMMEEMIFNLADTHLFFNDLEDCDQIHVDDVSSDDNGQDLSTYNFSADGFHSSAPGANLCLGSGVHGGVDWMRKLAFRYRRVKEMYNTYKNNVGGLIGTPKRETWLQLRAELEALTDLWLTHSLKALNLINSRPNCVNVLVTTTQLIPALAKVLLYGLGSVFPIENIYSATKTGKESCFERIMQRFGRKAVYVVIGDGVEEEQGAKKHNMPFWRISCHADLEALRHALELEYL
Target sequence (Q15475 whole entry, looked up): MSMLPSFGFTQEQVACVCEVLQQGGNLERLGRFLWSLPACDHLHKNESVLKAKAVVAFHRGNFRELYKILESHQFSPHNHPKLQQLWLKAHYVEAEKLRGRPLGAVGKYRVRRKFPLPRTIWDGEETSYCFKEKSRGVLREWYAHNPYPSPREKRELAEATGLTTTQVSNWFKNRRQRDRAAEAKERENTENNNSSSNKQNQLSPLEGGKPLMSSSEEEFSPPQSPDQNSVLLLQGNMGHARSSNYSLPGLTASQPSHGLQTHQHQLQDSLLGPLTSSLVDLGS
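GST-Six1 + His-Eya2 (5X stock: 250/500 nM); Tris pH 8.0, 300 mM NaCl, 0.05% BSA, 0.02% Tween 20; GSH donor/Ni acceptor beads; 1 h 37 °C dark; AlphaScreen readout.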
D2 agonist = Beta-Arrestin HTS for Positive Allosteric Modulators of the Human D2 Dopamine Receptor: Agonists; activation, % (concentration not given with the values); hit rate 0.084% among 360,000; D(2) dopamine receptor (Homo sapiens), P14416; DiscoveRx PathHunter D2 beta-arrestin, luminescence, 90 min; 100% = 57 uM dopamine signal; in the data active = activation above about 40%; inconclusive = about 15% to 40%; inactive = below about 15%; also: compound concentration not given in the record; the text of the record calls up to 30% inactive
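DiscoveRx PathHunter D2 beta-arrestin cells (2,100/well) attached overnight, then compound-stimulated 90 min at 37 C in HBSS/10 mM HEPES/0.1% Tween-20 buffer; beta-galactosidase complementation read by luminescence after 1 h at ambient temperature. Dopamine 57 uM final (EC100) as control.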
CtBP-E1A inh = qHTS Assay for Inhibitors of the CtBP/E1A Interaction; AID 651724, 2012; CtBP / adenovirus E1A interaction (AlphaScreen); AlphaScreen GST-E1A/His-CtBP binding, 1536-well; hits give low values; control for the full effect not named in the record; activity change, % (concentration not given with the values); hit rate 0.49% among 340,000; in the data active means activity change below about -65%; inconclusive means about -30% to -65%; inactive means above about -30%; also: % is scaled to controls: 0 for no effect and ±100 for the full control effect
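AlphaScreen with 125 nM GST-E1A and 125 nM His-CtBP (5X stocks) in Tris pH 8.0, 300 mM NaCl, BSA, Tween 20, TCEP. Compounds preincubated 2 h at 37 deg C, then glutathione donor/nickel acceptor beads added for 1 h at 37 deg C in dark.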
* hit, by the source's call; ? = inconclusive; . = no result given; [ ] = another dose, or the depositor's remark.

SMILES | TRPML1 agonist | TRPML1 blocker | PINK1 modulator | Six1-Eya2 inh | D2 agonist | CtBP-E1A inh
CCOC(=O)Nc1ccc2c(c1)N(C(=O)CN1CCN(CCO)CC1)c1ccccc1CC2 | 0.1 | 18 | 0.0% | -2 | -2.6 | -3
Cc1ccccc1CNC(=O)c1oc2c(c1C)-c1nn(Cc3ccc(Cl)cc3)cc1CC2 | 1.0 | 33 | 0.3% | . | . | .
Cc1nnc2n(-c3ccccc3)c(=O)c3c4c(sc3n12)CCCC4 | 4.0 | 4 | -1.3% | 0 | -0.8 | 6
O=C(COC(=O)c1cc([N+](=O)[O-])ccc1NCCO)NCc1cccs1 | -0.3 | -28 | 1.9% | 4 | -3.2 | 5
COc1ccc(OCCN(C)C(=O)c2cccc(S(=O)(=O)N(C)c3ccccc3)c2)cc1 | 1.5 | 1 | -0.2% | -4 | 3.0 | -3
Cc1ccc(C(=O)NCc2ccncc2)cc1S(=O)(=O)N1CCCCC1 | 0.7 | 6 | -0.9% | 1 | 0.5 | -4
COc1ccc(S(=O)(=O)c2c(O)c3ccc(C(=O)NCc4ccccc4)cc3[nH]c2=O)cc1 | 0.5 | -8 | 0.6% | . | . | .
CCOC(=O)C1CCCN(Cc2cc(Br)c(OC)cc2OC)C1 (centres undefined) | -0.7 | 3 | 0.8%[38.3 µM] | -10 | -3.3 | -10
O=C(Nc1ccc(OC(F)(F)F)cc1)C1CC(c2ccc(F)cc2)=NO1 (centres undefined) | 0.3 | -4 | 3.2% | 7 | -0.6 | 11
CC(=O)Nc1ccc(/C=N/NC(=O)c2cccc(S(=O)(=O)N3CCOCC3)c2)cc1 | -0.3 | -7 | 12% | 3 | -2.2 | 8
CCCCCCN=CC1=C(O)CC(C)(C)CC1=O | -0.7 | -17 | 1.2% | 7 | -1.6 | 3
CSc1ccc(Cn2c(C)c(C(=O)NCc3cccc(Cl)c3)sc2=O)cc1 | 3.1 | . | -0.2% | -11 | -2.2 | ?
O=C(/C=C/c1ccc(-c2ccccc2[N+](=O)[O-])o1)c1ccccc1 | -0.1 | 0 | -2.3% | -14 | -2.5 | -4
COc1ccccc1NC(=O)CSc1ccc(-c2ccco2)nn1 | -1.0 | 16 | 0.3% | -17 | 0.2 | -4
COc1ccccc1C1CC(=O)Oc2cc(OC)c(OC)c(OC)c21 (centres undefined) | 0.1 | -12 | -1.0% | 4 | -2.1 | 6
Cc1[nH]c(=O)cc2ccccc12 | -0.4 | -6 | 1.2% | 0 | -4.6 | -1
Cc1cc(NC(=O)CSCCO)no1 | 0.2 | 7 | ? | 8 | 0.1 | 7
CS(=O)(=O)N1CCN(c2ccc(NC(=O)C(c3ccccc3)c3ccccc3)cc2)CC1 | 0.6 | -13 | ? | -8 | 0.2 | -17
Cc1ccccc1NC(=O)Cc1cccc(C(F)(F)F)c1 | 0.8 | ? | 2.2% | 4 | 3.0 | 0
CCc1nc2ccc(C(=O)Nc3ccc4c(c3)OCC(=O)N4)cn2c1N(C)C(=O)Cc1ccccc1 | -0.8 | . | 2.7% | -16 | 1.9 | -10

Arranged by value in CtBP-E1A inh (smallest number first): some entries from above.
| Structure | CtBP-E1A inh |
| --- | --- |
| COc1ccccc1NC(=O)CSc1ccc(-c2ccco2)nn1 | -4 |
| CCCCCCN=CC1=C(O)CC(C)(C)CC1=O | 3 |
| Cc1cc(NC(=O)CSCCO)no1 | 7 |

Further records:
SMILES | TRPML1 agonist | TRPML1 blocker | PINK1 modulator | Six1-Eya2 inh | D2 agonist | CtBP-E1A inh
CCCCCCc1cc2cc(-c3nnc(-c4cc(OC)c(OC)c(OC)c4)o3)c(=O)oc2cc1O | 13 | -3 | ? | 3 | 0.1 | -5
COC(=O)Cn1c(=O)c2c(nc3n2CCN3c2cccc(C)c2)n(C)c1=O | -1.1 | 9 | 6.7% | . | . | .
Cc1cccnc1C(NC(=O)C1CCN(Cc2ccc(Oc3ccccc3)cc2)CC1)c1ccc(F)cc1 (centres undefined) | 9.1 | . | ? | -23 | -6.2 | -23
COc1cccc(/C=N/Nc2ncnc(Cl)c2N)c1O | -0.3 | 28 | ? | -88* | -2.8 | -79*
CCCNC(=O)C1(CC2CC(c3ccccc3)=NO2)CCN(C(=O)C2CCCC2)CC1 (centres undefined) | 0.9 | 27 | 1.4% | 6 | -1.6 | 0
Cn1c(=O)oc2cc(S(=O)(=O)NC(Cc3ccccc3)C(=O)NCc3ccc(F)cc3)ccc21 (centres undefined) | 1.0 | 1 | 0.2% | . | . | .
Cc1nn(C(=O)c2cccc([N+](=O)[O-])c2)c(C)c1Br | -0.7 | -11 | 4.0% | -4 | -6.8 | 4
COc1ccc(C(CC(=O)c2ccccc2)S(=O)(=O)c2ccc(C)cc2)cc1 (centres undefined) | 2.4 | 17 | 1.7%[38.3 µM] | 7 | -2.6 | 4
CCOC(=O)c1[nH]c2ccc(OC)cc2c1NC(=O)/C=C/c1ccc2c(c1)OCO2 | 0.2 | 18 | 7.5% | 0 | -4.2 | 0
Cc1cccc(N/C=C/C(=O)c2cccs2)c1C | 0.4 | -11 | 15% | 1 | -4.1 | 5
CC(O)(c1ccccc1)C(C(c1ccccc1)N1CCOCC1)N1CCOCC1 (centres undefined) | -0.2 | -13 | 0.6% | 0 | -1.5 | 10
O=C(COc1ccc(/C=N/NC(=O)c2cc3ccccc3o2)cc1Cl)Nc1ccccc1 | -0.6 | -5 | -3.1% | -2 | -1.9 | 4
CC1CCN(C(=O)CSc2nc3ccccc3c(=O)[nH]2)CC1 | 0.1 | 26 | 1.3% | 2 | -3.0 | 6
Cc1cc(C)nc(NN=C(c2ccccc2)c2ccccc2)n1 | 2.7 | 12 | 2.3% | -3 | 0.4 | .
CCCCn1c(N)c(N(CCC(C)C)C(=O)CSc2nc3ccccc3n2C)c(=O)[nH]c1=O | 1.5 | -10 | 1.3% | -1 | -0.7 | -15
O=C(Nc1ccc(F)cc1)Nc1ccc(S(=O)(=O)N2CCCC2)cc1 | 0.8 | -3 | ? | -4 | ? | .
NC(=O)c1ccccc1NC(=O)/C=C/c1c(Cl)cccc1Cl | 0.6 | 0 | 7.0%[38.3 µM] | -6 | -2.4 | -13
O=C(CC12CC3CC(CC(C3)C1)C2)Nc1ccc(C(=O)O)cc1 | 0.3 | -26 | 0.3% | 8 | -3.5 | 4
CC(=O)Nc1ccc(NC(=O)C(C)Sc2nc3ccccc3c(=O)n2Cc2ccco2)cc1 (centres undefined) | -0.2 | 24 | 2.4% | 3 | -3.1 | 2
Cc1cccc(NC(=O)c2ccc(COc3ccccc3)o2)n1 | 0.6 | -6 | 7.9% | 2 | -3.2 | 7
O=C(O)C1C2C=CC(C2)C1C(=O)Nc1ccc2c(c1)OCCO2 (centres undefined) | 3.0 | 31 | -1.7% | 0 | -0.1 | 9
CCN(CC)S(=O)(=O)c1ccc(OC)c(NC(=S)Nc2cccc(C)c2C)c1 | 0.9 | 6 | 6.3% | 0 | -0.7 | -16
O=C(O)c1c(F)c(F)c(F)c(F)c1-c1ccc(Cl)cc1 | 1.2 | -11 | . | 21 | 0.8 | 13
Cc1ccc(CN2COc3ccc4c(C)cc(=O)oc4c3C2)cc1 | 0.9 | 11 | -0.6% | . | . | .
O=C(CNC(=O)c1ccco1)OCC(=O)c1ccc2c(c1)CCCC2 | 1.4 | 9 | 2.9% | 0 | -3.0 | -10
O=C(CNC(=O)c1ccccc1Br)NNC(=O)c1cccs1 | -0.4 | -4 | 3.1% | 8 | -0.7 | 5
CC1=C(C(=O)N2CCCCC2)C(c2cccs2)NC(=O)N1 (centres undefined) | 0.3 | -3 | -0.3% | 3 | -2.2 | 0
Cc1cc(OCC(=O)NCCCn2ccnc2)c2c(C)cc(=O)oc2c1 | -0.8 | 12 | -0.9% | 0 | -0.1 | 3
CCCCC(=O)Nc1ccc2oc(-c3ccncc3)nc2c1 | 1.7 | 2 | -0.8% | 2 | -1.5 | -3
Cc1ccc(C(=O)N2CCN3C(=O)c4ccccc4C23c2ccc(Cl)cc2)cc1 (centres undefined) | 2.9 | 52 | 7.1% | -3 | -6.7 | 8
CC(=O)C1C(c2ccc(Br)cc2)C2C(C)=NN=C2CC1(C)O (centres undefined) | 0.1 | 0 | 0.5% | 6 | -2.8 | .
Cc1ccc(CCNC(=O)C2CCC(CNc3c(N4CCC(C)CC4)c(=O)c3=O)CC2)cc1 (centres undefined) | -1.1 | -1 | -1.4% | -1 | -2.2 | -2
CCN(CC)C(=S)Oc1c(Cl)cccc1Cl | -0.4 | -2 | -0.9% | 24 | -2.5 | .
CC(OC(=O)c1ccc(NC(=O)CC#N)cc1)C(=O)Nc1ccc2c(c1)OCCO2 (centres undefined) | 0.3 | -10 | 0.9% | -9 | 1.0 | 6
O=C(Cn1c(=O)nc(-c2ccccc2F)c2cc(Cl)ccc21)Nc1ccccc1C(F)(F)F | 0.8 | 5 | -0.9% | . | . | .
N#Cc1ccccc1S(=O)(=O)N1CCN(C(=O)c2cc(-c3ccccc3)nn2-c2ccccc2)CC1 | -0.4 | 3 | 4.3% | 5 | -2.3 | 2
CCOC(=O)C1=C(O)/C(=C/c2ccc(OCC(=O)O)c(OCC)c2)SC1=Nc1ccc(C)cc1 | 0.6 | -3 | -0.5% | -6 | -5.6 | -4
Cc1ccc(-n2ncc(C(=O)NCc3ccco3)c2C2CCN(C(=O)OC(C)(C)C)CC2)cc1C | 9.9 | 1 | -0.7% | . | . | .
CS(=O)(=O)N1CCN=C1SCc1ccccc1 | 3.0 | 34 | -0.9% | 6 | 1.6 | .
O=C(O)c1cccc(Oc2ccccc2[N+](=O)[O-])c1 | 0.5 | 9 | -0.3% | 5 | -3.1 | 2
Cc1ccc(-c2nn(-c3ccccc3)cc2/C=C2\SC(=S)N(CC(=O)O)C2=O)cc1 | -0.1 | -9 | 0.8% | -1 | -2.1 | .
O=C(NCCCN1CCOCC1)c1ccc2c(=O)n(Cc3ccccc3)c(=S)[nH]c2c1 | 1.3 | -5 | 4.0% | -11 | -3.8 | 1

Entries listed so far shown as hits in CtBP-E1A inh:
| structure | TRPML1 blocker | PINK1 modulator | Six1-Eya2 inh | D2 agonist | CtBP-E1A inh |
| --- | --- | --- | --- | --- | --- |
| COc1cccc(/C=N/Nc2ncnc(Cl)c2N)c1O | 28 | ? | -88* | -2.8 | -79* |

Compound activity from PubChem BioAssay.
